# PINK1 modulator: changes PINK1 expression. PINK1 immunofluorescence, high-content cytometry, 24 h. Potency, µM (series often up to 76.6 µM), for inactives: top-dose activation (PINK1 increase), actives largely listed as activators. 410,000 compounds, 0.2% hits. AID 624263; active = well fitted activation curve with a large enough effect; inconclusive = small, poorly fitted or top-dose-only effect; inactive = flat fitted curve, though single readings scatter; cell line not stated here;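 further: potency means the concentration at half of the fitted maximal effect; % of control where 0% means no effect; nearly all actives have a fitted effect of over 65% in size; a mitochondrial uncoupler was the plate control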
#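 Stable cell line treated 24 h with compounds at 5 concentrations (CCCP controls), then fixed and immunostained for PINK1 plus nuclear and cell stains; PINK1 immunofluorescence quantified by laser-scanning microplate cytometry.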
# CtBP-E1A blk: inhibitors of CtBP/E1A interaction; 340,000 compounds, 0.49% hits; AID 651724; AlphaScreen GST-E1A/His-CtBP binding, 1536-well; active compounds read low; control for the full effect not named in the record; activity change, % (test concentration not listed); in the data active means activity change below about -65%; inconclusive means about -30% to -65%; inactive means above about -30%; further: on the % scale 0 is the no-effect control and ±100 the full control effect
#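 Protein mix (5X: 125 nM each GST-E1A, His-CtBP) was incubated with pinned compound 2 h at 37 deg C in dark, in 50 mM Tris pH 8.0 buffer with 300 mM NaCl. Glutathione donor and nickel acceptor beads followed; AlphaScreen signal read after 1 h.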
# D2 ag: activates the human D2 dopamine receptor | P14416 | DiscoveRx PathHunter D2 beta-arrestin, luminescence, 90 min; 100% = 57 uM dopamine signal | activation, % (test concentration not listed) | 360,000 compounds, 0.084% hits; in the data active = activation above about 40%; inconclusive = about 15% to 40%; inactive = below about 15%; further: compound concentration not given in the record; the text of the record calls up to 30% inactive
# Target sequence (P14416 whole entry, looked up): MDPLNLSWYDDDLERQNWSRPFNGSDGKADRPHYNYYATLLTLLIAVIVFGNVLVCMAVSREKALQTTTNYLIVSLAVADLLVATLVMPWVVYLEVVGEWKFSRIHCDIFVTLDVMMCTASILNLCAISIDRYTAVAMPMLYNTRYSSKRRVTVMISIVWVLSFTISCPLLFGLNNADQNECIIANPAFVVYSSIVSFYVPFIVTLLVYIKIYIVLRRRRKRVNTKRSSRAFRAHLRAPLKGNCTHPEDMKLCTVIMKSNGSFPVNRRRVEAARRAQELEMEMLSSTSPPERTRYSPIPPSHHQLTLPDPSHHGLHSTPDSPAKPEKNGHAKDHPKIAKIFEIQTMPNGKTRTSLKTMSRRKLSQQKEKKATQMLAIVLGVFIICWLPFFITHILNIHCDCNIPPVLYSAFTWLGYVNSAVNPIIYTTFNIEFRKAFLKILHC
#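 Agonist mode: compounds alone added to overnight-plated D2 PathHunter cells for 90 min at 37 C, with 57 uM final dopamine (EC100) defining full response. Beta-arrestin recruitment detected by chemiluminescent reagent, read after 1 h at ambient temperature.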
# TRPML1 agonist: human mucolipin-1 channel agonism; TRPML1-expressing cells, Ca2+ dye fluorescence, FDSS; host cell line not named in the record; reference of the full effect not given here; activation, % (test concentration not listed); 410,000 compounds, 0.12% hits; AID 624414; in the data active = activation above about 50%; inconclusive = about 30% to 50%; inactive = below about 30%; further: 0% is about no effect; the text of the record puts the active cut at 80%
# Target sequence (Q9GZU1 whole entry, looked up): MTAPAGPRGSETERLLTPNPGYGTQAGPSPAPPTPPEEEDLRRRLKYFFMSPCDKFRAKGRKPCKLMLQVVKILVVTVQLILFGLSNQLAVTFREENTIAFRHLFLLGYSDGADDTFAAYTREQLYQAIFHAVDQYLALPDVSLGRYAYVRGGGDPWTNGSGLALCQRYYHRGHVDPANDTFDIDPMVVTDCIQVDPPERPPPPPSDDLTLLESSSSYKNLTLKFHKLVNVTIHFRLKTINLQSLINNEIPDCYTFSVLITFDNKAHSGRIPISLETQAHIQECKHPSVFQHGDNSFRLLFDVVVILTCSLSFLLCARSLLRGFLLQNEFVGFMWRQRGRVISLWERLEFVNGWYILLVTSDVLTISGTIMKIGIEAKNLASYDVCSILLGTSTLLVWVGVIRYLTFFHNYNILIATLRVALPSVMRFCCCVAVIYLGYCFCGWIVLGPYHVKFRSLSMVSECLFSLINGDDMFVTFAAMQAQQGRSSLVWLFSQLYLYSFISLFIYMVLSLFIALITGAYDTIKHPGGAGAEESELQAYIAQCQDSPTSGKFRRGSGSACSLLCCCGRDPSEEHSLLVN
#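 TRPML1-DL cells, Tet-induced overnight (~16 h, 37 degrees C), loaded 45-90 min at room temperature with Ca8 no-wash calcium dye plus quencher. FDSS fluorescence: 10 s baseline, compound pin-transfer, 110 s agonist read, then EC80 54-4 (4uM final) and 110 s antagonist read.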
# Six1-Eya2 inh: blocks human Six1 binding to Eya2 | Q15475+O00167 | 360,000 compounds, 0.56% hits | AlphaScreen GST-Six1/His-Eya2 binding, biochemical; active compounds read low; control for the full effect not named in the record | activity change, % (concentration not given with the values); in the data active = activity change below about -65%; inconclusive = about -30% to -65%; inactive = above about -30%; further: on the % scale 0 is the no-effect control and ±100 the full control effect
#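 GST-Six1 + His-Eya2 (5X stock: 250/500 nM); Tris pH 8.0, 300 mM NaCl, 0.05% BSA, 0.02% Tween 20; GSH donor/Ni acceptor beads; 1 h 37 °C dark; AlphaScreen readout.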
# TRPML1 blocker: inhibitors of human TRPML1 channel. TRPML1-inducible cells, Ca2+ dye fluorescence, FDSS; active compounds read low; inhibition of EC80 agonist-evoked calcium signal. activity change, negative = inhibition, % (test concentration not listed). 390,000 compounds, 0.02% hits. AID 624415; in the data active means activity change below about -50%; inconclusive means about -30% to -50%; inactive means above about -30%;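 further: stimulus is agonist 54-4 at its EC80 concentration; on the % scale 0 is the no-effect control and ±100 the full control effect; compound concentration not given in the record; the text of the record puts the active cut at -80%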
#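 Tet-induced TRPML1-DL cells loaded with Ca8 no-wash calcium dye were read kinetically on FDSS. Compound addition was followed by EC80 agonist 54-4 (4 uM final); inhibition was read over 110 s.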
# Active calls of the source: *; ? = inconclusive; / = no result given; [ ] = another dose, or the depositor's remark.
# Below each SMILES: PINK1 modulator	CtBP-E1A blk	D2 ag	TRPML1 agonist	Six1-Eya2 inh	TRPML1 blocker
- NC(=O)CC(NC(=O)Cc1ccc(Cl)cc1)c1ccc(NCc2ccccc2)c([N+](=O)[O-])c1 (configuration not stated)
    26.1%	-0.3	-3.9	0.3	0.2	-11.6
- CCN(CC)C(=S)Nc1c(C)n(C)n(-c2ccccc2)c1=O
    1.0%	12.2	0.7	1.5	-0.2	-12.1
- CCCCCNS(=O)(=O)c1ccc(N2CCCCS2(=O)=O)cc1
    0.4%	/	/	-0.6	/	-16.3
- O=C(CCC(=O)c1cccs1)Nc1ccc(N2CCCCC2)cc1
    -1.1%	-12.5	-1.7	1.1	-9.3	-16.0
- CC(=O)NCCc1nc2cc(NC(=O)c3ccc(Cl)cc3)ccc2n1C
    -0.1%	/	-1.3	1.0	8.9	-4.9
- Cc1ccc(CN(Cc2ccco2)C(=O)COc2ccc(C(C)C)cc2)cc1
    24.8%	/	/	3.1	/	-11.7
- CCN1C(=O)[C@H]2[C@@H](c3ccc(C(F)(F)F)cc3)N[C@]3(CCCN(Cc4ccc(C)cc4)C3=O)[C@H]2C1=O
    1.0%	4.6	-6.5	0.1	0.6	-8.0
- Cc1ccc(C(=O)C2CCN(CC(=O)NCc3ccc(F)cc3)CC2)cc1
    -1.0%	5.2	-3.3	2.1	7.6	-18.6
- Cc1ccccc1-n1c(SC/C(O)=C(\C#N)c2nc3ccccc3[nH]2)nnc1-c1ccncc1
    -2.5%	-17.8	-2.0	1.2	-12.4	-23.8
- COc1ccc(S(=O)(=O)Nc2ccc3c(c2)OCO3)cc1OC
    -1.4%	-2.8	-0.5	-0.8	-5.6	17.9
- COc1ccc2[nH]c(=O)c(CN(C(=O)c3ccccn3)C3CCCCC3)cc2c1
    1.9%	15.6	-2.2	0.9	18.8	?
- CC(C)CNC(=O)c1cccc(NC(=O)c2ccc(NC(=O)c3ccco3)cc2)c1
    ?	20.0	1.0	-0.1	3.6	4.9
- CN(C(=S)NC(=O)c1ccc(Br)o1)c1ccccc1
    0.9%	-3.4	1.1	0.5	-10.9	-1.1
- Cc1cccc(-c2nc3ccccc3n2Cc2ccccc2)c1
    ?	/	/	5.8	/	72.3
- COc1ccc(N(CC(=O)N/N=C/c2cccs2)S(=O)(=O)c2ccccc2)cc1
    3.0%	-12.7	2.2	2.9	-15.5	1.3

# Entries of single compounds from above.
# CN(C(=S)NC(=O)c1ccc(Br)o1)c1ccccc1 as listed: PINK1 modulator: 0.9%; CtBP-E1A blk: -3.4; D2 ag: 1.1; TRPML1 agonist: 0.5; Six1-Eya2 inh: -10.9; TRPML1 blocker: -1.1
# CCN1C(=O)[C@H]2[C@@H](c3ccc(C(F)(F)F)cc3)N[C@]3(CCCN(Cc4ccc(C)cc4)C3=O)[C@H]2C1=O as listed: PINK1 modulator: 1.0%; CtBP-E1A blk: 4.6; D2 ag: -6.5; TRPML1 agonist: 0.1; Six1-Eya2 inh: 0.6; TRPML1 blocker: -8.0

# (list continues)
# Below each SMILES: PINK1 modulator	CtBP-E1A blk	D2 ag	TRPML1 agonist	Six1-Eya2 inh	TRPML1 blocker
- CN=c1scc(C)n1/N=C/c1ccc2c(c1)OCO2
    3.9%	-24.7	-5.9	-0.8	?	10.6
- Cn1c(=O)c2[nH]c(-c3cccnc3)nc2n(C)c1=O
    -3.6%[38.3 µM]	1.6	-0.7	-0.7	-1.8	8.0
- CN(C)S(=O)(=O)c1ccc(Nc2ccc(-c3ccc4c(c3)OCCO4)nn2)cc1
    -0.6%[38.3 µM]	-19.2	2.4	-0.5	-20.8	7.7
- CC(C)c1ccc(S(=O)(=O)N2CCC(C(=O)N3CCC3)CC2)cc1
    1.1%	0.8	0.0	-0.3	0.8	5.5
- CC(C)(C)c1nnc(NC(=O)CCS(=O)(=O)Cc2ccccc2)s1
    5.5%	-12.6	-4.1	-0.1	1.3	0.4
- Cc1ccc(N(C)S(=O)(=O)c2cccc(C(=O)NCC(c3cccs3)N3CCOCC3)c2)cc1 (configuration not stated)
    3.1%	-0.7	-4.0	0.6	-7.3	-8.8
- CCn1c(-c2ccccc2)ccc(C#N)c1=O
    -3.0%	36.8	-1.4	1.1	35.5	2.1
- COCCCNS(=O)(=O)c1ccc(C)cc1
    3.4%	1.4	-1.9	0.1	7.7	26.1
- COc1cccc(C(=O)NCCS(=O)(=O)NCC2CCCO2)c1 (configuration not stated)
    -2.4%	-12.4	-0.7	0.4	0.7	-14.8
- CCC(C)NC(=O)CNC(=S)N(Cc1ccccc1)Cc1cccnc1 (configuration not stated)
    1.5%	3.9	-7.6	-1.5	5.2	13.9
- Cc1ccc(N/C(N)=N/c2nc(C)cc(C)n2)cc1
    24.4%	-3.0	0.4	?	4.7	0.5
- N/C(=N\OS(=O)(=O)c1ccc(Br)cc1)c1ccncc1
    ?	9.4	?	-0.9	4.4	16.5
- CCc1ccc(Nc2nnc(SC3CCOC3=O)s2)cc1 (configuration not stated)
    9.8%	-0.8	-1.5	0.2	1.7	14.5
- COC(=O)c1cc(S(=O)(=O)N(C)C2CCCCC2)cn1C
    0.6%	/	-2.3	-0.5	-5.4	-14.2
- Cc1cc(NC(=O)c2cc(-c3cccs3)on2)nn1Cc1ccc(Cl)cc1
    16.5%[38.3 µM]	8.2	1.9	3.0	0.3	-2.0

# More results
# Below each SMILES: PINK1 modulator	CtBP-E1A blk	D2 ag	TRPML1 agonist	Six1-Eya2 inh	TRPML1 blocker
- COc1ccc(-n2nc3cc(C)c(NC(=O)Cc4ccc(Cl)cc4)cc3n2)cc1
    4.4%	/	/	0.0	/	-16.8
- Cc1cc(C)c([N+](=O)[O-])cc1NC(=O)CCSc1ccccc1Cl
    0.9%	/	6.3	-0.1	2.3	7.6
- COc1ccc(-c2cnc3c(c2)C(=O)N([C@H](C)CO)C[C@@H](C)[C@H](CN(C)Cc2ccccc2)O3)cc1
    -2.5%	-12.8	-3.3	0.3	0.9	15.7
- Cc1ccc2nc(-c3cccnc3SCC(=O)N3c4ccccc4CC3C)[nH]c2c1 (configuration not stated)
    -1.6%[38.3 µM]	0.0	-1.7	1.2	10.1	-4.5
- CCOC(=O)c1c(S(=O)(=O)NCC(=O)N2CCN(c3cccc(Cl)c3)CC2)c(C)n(C)c1C
    0.9%	/	/	3.6	/	52.7
- CCCCN1C(=O)C(=O)N(CC(=O)c2ccc[nH]2)C1=O
    0.4%	1.6	-3.3	2.1	2.4	2.9
- CC(=O)NCCC(=O)Nc1cc(S(=O)(=O)Nc2ccc(Cl)cc2)ccc1N1CCCC1
    -1.2%	-0.4	-0.8	0.4	6.7	-13.4
- CCC(C)(C#CCN1CCCCC1)OCCC#N (configuration not stated)
    0.1%	2.8	-0.2	0.3	2.6	3.7
- CCN(CC)S(=O)(=O)c1c(Br)cc(C)cc1Br
    ?	9.9	0.3	1.5	11.6	27.9
- COc1cccc(CN2CCCC(C(=O)N3CCCCC3)C2)c1 (configuration not stated)
    0.9%	/	0.0	0.0	5.8	-16.7
- CC(=O)c1c(C)[nH]c(C(=O)Nc2nc(C)cs2)c1C
    5.6%	-1.7	-9.9	0.2	-13.8	2.2
- Nc1ccn([C@@H]2O[C@H](C(=O)N3CCN(c4ccc(Cl)cn4)CC3)[C@@H](O)[C@H]2O)c(=O)n1
    1.1%	0.5	-4.9	-0.3	4.5	/
- CC1CCCCN1C(=O)COc1ccc(S(=O)(=O)N2CCCC2)cc1[N+](=O)[O-] (configuration not stated)
    3.3%	2.5	2.1	0.0	0.1	15.9
- COc1ccc(S(=O)(=O)Nc2c(C(=O)O)[nH]c3ccc(OC)cc23)cc1
    2.5%	-20.7	6.6	0.7	-14.9	-2.0
- O=C(CCc1ccc(S(=O)(=O)N2CCOCC2)cc1)Oc1ccccc1
    12.5%[38.3 µM]	1.4	2.4	0.6	3.1	17.7

# (listing goes on)
# Below each SMILES: PINK1 modulator	CtBP-E1A blk	D2 ag	TRPML1 agonist	Six1-Eya2 inh	TRPML1 blocker
- CCN(CCNC(=O)C1=C(C)C(=O)OC12CCC(C)CC2)c1ccccc1 (configuration not stated)
    0.2%	1.7	-0.4	-0.5	-11.5	20.0
- CC1=NNC(=O)C1C(c1ccc(Cl)cc1)C(C#N)C#N (configuration not stated)
    3.1%	-5.4	-0.9	-0.2	-1.8	8.5
- COc1ccc2ccccc2c1/C=N/Nc1cccc(C(=O)O)c1
    1.9%	0.0	5.8	-0.2	-3.6	-9.5
- Fc1ccccc1CNCC1CCCO1 (configuration not stated)
    0.8%	2.8	-3.0	0.5	-18.0	21.8
- CC(C)(C)c1ccc(C(=O)NC2=NC(c3cccc(F)c3)CC(=O)N2)cc1 (configuration not stated)
    -1.0%	/	/	1.3	/	-4.9
- COc1ccc(Nc2nc(N/N=C/c3ccc(N(C)C)cc3)nc(C)c2[N+](=O)[O-])cc1
    29.4%	6.1	-9.7	0.2	-27.0	-1.1
- O=C(NCCc1ccc(Cl)cc1)c1ccc2[nH]c(=O)c(=O)[nH]c2c1
    2.0%	/	-2.6	0.0	-2.5	2.6
- O=C(/C=C/c1ccccc1)OCC(=O)c1c[nH]c2ccccc12
    1.6%	-19.4	-0.6	0.5	-7.2	-7.6
- CCOC(=O)c1cnc(-n2cc(C)cn2)nc1NCc1ccc2c(c1)OCO2
    -1.8%[38.3 µM]	1.7	0.2	3.2	-1.7	7.3
- COc1ccc(C(=O)NNC(=S)NC(=O)c2cccnc2)cc1
    0.6%	7.1	-7.2	-1.2	19.2	-6.9
- CC(C)c1nnc(NC(=O)CN(C)S(=O)(=O)c2ccc3c(c2)OCCO3)s1
    1.1%	0.3	0.9	1.2	5.5	-6.1
- NS(=O)(=O)c1ccc(NC(=O)/C=C/c2cn(-c3ccccc3)nc2-c2cccc(Cl)c2)cc1
    -1.8%	0.8	6.4	0.6	24.1	9.4
- CCc1cccc(NC(=O)CSc2nccn2C)c1
    1.6%	/	/	2.1	/	-2.0
- CCCCCc1ccc2cc(C#N)ccc2n1
    1.6%	25.9	-2.3	-0.4	4.3	/
- COc1ccccc1N1CCN(C(=O)C2CCN(S(=O)(=O)c3ccc4c(c3)CC(C)N4C(C)=O)CC2)CC1 (configuration not stated)
    0.5%	-1.9	-2.1	0.9	2.2	2.5

# (listing goes on)
# Below each SMILES: PINK1 modulator	CtBP-E1A blk	D2 ag	TRPML1 agonist	Six1-Eya2 inh	TRPML1 blocker
- O=S(=O)(CCc1ccncc1)C1Cc2cccc3cccc1c23 (configuration not stated)
    -1.0%	-15.4	-7.1	1.2	9.9	-10.1
- Cc1ccc(-c2nc3c(C)cc(Br)cn3c2Cc2ccsc2)cc1
    7.7%	3.3	-5.7	1.1	-8.3	41.6
- Cc1ccsc1/C=C1/C(=O)NN(c2ccccc2)C1=O
    0.8%	2.2	-5.9	0.2	18.2	-7.2
- CCN(CC)c1ccc(/C=C2\NC(=O)NC2=O)cc1
    2.5%	2.4	-3.3	0.1	4.1	-0.7
- CN(C)S(=O)(=O)c1ccc(C(=O)OCC(=O)NC(=O)NC2CCCC2)cc1
    0.0%	/	1.9	0.1	6.5	-10.9
- Oc1c(C(c2ccccn2)N2CCCCC2)cc(Cl)c2cccnc12 (configuration not stated)
    0.8%	-93.2*	-3.9	-0.3	-92.3*	3.6
